B2AR ag: human beta-2 adrenergic receptor agonism by FAP; P07550; Am2.2-beta2AR cells, FAP receptor internalization, flow cytometry; reference of the scale not given here; response, % (no concentration beside the values); hit rate 0.43% among 340,000; AID 504454;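 active = response above a set limit, near 3 SD of response in nonfluorescent compounds, cut at about 42% in these data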;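 also: stock transfer was 100 nL into about 11 µL; a reference agonist was the positive control; negative values mostly stem from fluorescent compounds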
Target sequence (P07550 whole entry, looked up): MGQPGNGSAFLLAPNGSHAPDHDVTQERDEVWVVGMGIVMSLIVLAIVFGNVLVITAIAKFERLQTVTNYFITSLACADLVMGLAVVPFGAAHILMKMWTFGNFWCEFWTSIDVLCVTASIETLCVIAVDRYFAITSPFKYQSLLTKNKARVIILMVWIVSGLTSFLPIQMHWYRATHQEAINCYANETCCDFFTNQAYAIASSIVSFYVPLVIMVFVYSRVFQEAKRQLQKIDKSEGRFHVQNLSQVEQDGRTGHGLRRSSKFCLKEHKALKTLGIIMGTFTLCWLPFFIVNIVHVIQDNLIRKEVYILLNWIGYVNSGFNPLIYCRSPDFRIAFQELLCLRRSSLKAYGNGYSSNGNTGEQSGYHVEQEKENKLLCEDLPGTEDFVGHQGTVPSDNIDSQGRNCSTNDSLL
A1 inh: inhibitors of the anti-apoptotic protein A1, read as caspase activation; hit rate 0.066% among 330,000; caspase activation, % (no concentration beside the values); MEF A1-2A-BIM cells, Caspase-Glo 3/7 luminescence, 3 h; percent of clofoctol response, vehicle zero;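 active = over half of replicate activation scores above 10%, or exactly half above 10 with the replicate mean above 10; inconclusive = replicate mean below 10 yet half the replicates above 10; inactive = over half of replicates below 10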;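 also: wells of about 30 µL received 50 nL stock; many hits fall short of the cut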
E coli growth: E. coli growth inhibition; Escherichia coli growth, OD600, 23 h; stronger effect = lower value; OD600 absorbance (no concentration beside the values); hit rate 0.21% among 330,000; AID 1053175;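 active = OD600 absorbance below the run mean of sample wells minus 3.6 SD, in any replicate, cut at about 0.56 in these data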;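 also: stock transfer was 300 nL into about 60 µL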
Vif A3G: inhibitors of Vif binding to APOBEC3G peptide, primary screen, biochemical, TR-FRET, GST-Vif 1-94, biotin-A3G peptide, dose response retest (AID 1117319); one-dose inhibition, %; IC50 in µM for titrated hits; hit rate 0.57% among 260,000; TR-FRET GST-Vif / biotin-A3G peptide binding; higher % means a stronger effect; test concentration not given here; strong numbers were not always called active;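 active = above the screen mean plus three standard deviations and confirmed in dose response; inconclusive = results disagree or hit not tested in dose response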;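 also: Vif residues 1-94 fused to GST binding biotinylated APOBEC3G peptide 110-148; 0% = full assay without inhibitor and 100% = GST in place of GST-Vif; retest series ran down from 100 µM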
LANA-H2A inh: blocks KSHV LANA binding to histone H2A/H2B; inhibition, % (no concentration beside the values); Q9QR71; cell-free LANA-H2A/H2B peptide, fluorescence polarization; hit rate 0.6% among 320,000; in the data active = inhibition mostly above about 10%, no sharp cut-off; inactive = mostly below about 6.7%;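 also: stock transfer was 7.5 nL into about 10 µL; 0% = median of vehicle wells and 100% = median of positive control wells; one replicate is shown; the record names a cut of 25% in any replicate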
UCH37 inh: human UCH37 deubiquitinating enzyme inhibition. purified proteasome/UCH37, Ub-AMC cleavage fluorescence. inhibition, % (no concentration beside the values). hit rate 0.33% among 330,000;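 active = mean of two replicates above 20%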;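 also: 0% = compound-free wells with enzyme and 100% = wells lacking proteasome; stock transfer was 100 nL into about 20 µL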
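system = Proteasome-associated human UCH37 deubiquitinase | amount = 0.15 nM proteasome as dispensed | medium = pH 7.4 Tris-HCl (50 mM) with ovalbumin, ATP-MgCl2, DTT | incubation = 30 min preincubation with enzyme, 25 min cleavage at room temperature | detection = AMC fluorescence 355/460 nm | read-out basis = percent inhibition | controls = no-proteasome and no-compound wells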
HNF4A DNA FP: change in binding of human HNF4 alpha to DNA | HNF4a-FITC DNA binding, fluorescence polarization, 1 h | hit rate 0.3% among 360,000 | P41235 | activity change, % at 10 µM; in the data active = activity change above about 30%, passing the limit was not always enough;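 also: controls were the assay level and a saturating level of protein; the project sought stronger binding though the title names inhibitors; some compounds called inactive have numbers as strong as hits; positive values seem to mean higher polarization but the record does not say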
Target sequence (P41235 whole entry, looked up): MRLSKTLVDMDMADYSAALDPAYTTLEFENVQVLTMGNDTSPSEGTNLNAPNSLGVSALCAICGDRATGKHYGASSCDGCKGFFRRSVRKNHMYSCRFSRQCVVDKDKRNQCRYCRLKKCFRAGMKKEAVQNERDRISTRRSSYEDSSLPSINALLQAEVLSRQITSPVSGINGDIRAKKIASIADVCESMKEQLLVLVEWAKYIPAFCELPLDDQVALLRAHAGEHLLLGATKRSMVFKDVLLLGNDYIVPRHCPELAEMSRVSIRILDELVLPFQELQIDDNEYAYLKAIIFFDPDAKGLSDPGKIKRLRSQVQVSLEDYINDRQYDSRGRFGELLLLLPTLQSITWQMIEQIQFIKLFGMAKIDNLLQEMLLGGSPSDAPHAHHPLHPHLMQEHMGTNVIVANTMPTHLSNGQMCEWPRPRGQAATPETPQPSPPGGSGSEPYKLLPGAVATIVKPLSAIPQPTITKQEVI
* hit, by the source's call; i = inactive; u = inconclusive; x = no result given.

Start of the data: the first 3 compounds as a preview:
SMILES | B2AR ag | A1 inh | E coli growth | Vif A3G | LANA-H2A inh | UCH37 inh | HNF4A DNA FP
Cc1cc(C)c2cc(CNC3CCCC3)c(Cl)nc2c1 | 3 | 0.4 | 0.7 | -3% | -3.2 | -6.7 | 9.0
CCOC(=O)C1(NC(=O)C2(NC(=O)CN3C(=O)c4ccccc4C3=O)CCCC2)CCCC1 | -4 | x | 0.65 | -4% | x | 0.4 | -3.1
Cc1ccc(Nc2nc(N3CCOCC3)c3ccccc3n2)cc1 | -3 | -0.4 | 0.59 | 4% | -0.8 | -7.5 | 0.3

The whole of this part, from the first entry:
SMILES | B2AR ag | A1 inh | E coli growth | Vif A3G | LANA-H2A inh | UCH37 inh | HNF4A DNA FP
Cc1cc(C)c2cc(CNC3CCCC3)c(Cl)nc2c1 | 3 | 0.4 | 0.7 | -3% | -3.2 | -6.7 | 9.0
CCOC(=O)C1(NC(=O)C2(NC(=O)CN3C(=O)c4ccccc4C3=O)CCCC2)CCCC1 | -4 | x | 0.65 | -4% | x | 0.4 | -3.1
Cc1ccc(Nc2nc(N3CCOCC3)c3ccccc3n2)cc1 | -3 | -0.4 | 0.59 | 4% | -0.8 | -7.5 | 0.3
CC[C@]1(C(=O)OC)[C@H]2C(=O)N(Cc3ccccc3)C(=O)[C@H]2[C@H]2CN=C(SCc3ccccc3)N21 | 3 | x | 0.69 | -8% | x | 1.1 | -0.8
Cc1cccc(C)c1NC(=O)C1(N(Cc2ccco2)C(=O)Cn2nnnc2N)CCCCC1 | 3 | -0.8 | 0.68 | -4% | -0.5 | 2.6 | 0.7
COC(=O)c1ccccc1NC(=S)NC(=O)c1ccccc1F | 2 | 0.9 | 0.71 | 0% | -1.1 | -1.3 | -0.7
CC(C)(C)C(=O)NC(=S)Nc1cc(C(=O)O)ccc1Cl | -2 | -0.5 | 0.74 | 23% | 3.9 | 4.1 | -1.1
CCC(C)(C)C1CCC(=NNC(=O)c2ccc(Br)o2)CC1 (stereo unspecified) | 7 | 0.5 | 0.69 | 14% | -4.0 | 0.5 | -0.3
Cc1nn(Cc2ccc(Cl)cc2Cl)c(C)c1NC(=O)c1sc2ccccc2c1Cl | -4 | -0.9 | 0.7 | u | -2.4 | 0.0 | 0.4
COc1ccc(Cc2nc3ccccc3[nH]c2=O)cc1 | -22 | 0.5 | 0.67 | x | -2.6 | 5.6 | 0.5
Cc1cc(-c2nn3c(-c4ccccc4)nnc3s2)c2ccccc2n1 | -15 | 0.5 | 0.74 | 1% | 2.4 | 2.2 | -2.5
O=C(c1cncc(Br)c1)N1CCN(c2ccc(N3CCOCC3)nn2)CC1 | -8 | -0.4 | 0.71 | 4% | 0.3 | -84 | -1.5
COc1ccc(O)c(/C=N/NC(=O)CN2CCS(=O)(=O)CC2)c1 | -2 | 0.0 | x | 30% | 1.1 | x | 1.3
CCCCOc1ccc(/C(O)=C(\C#N)c2nc3ccccc3[nH]2)cc1 | -16 | 0.0 | 0.68 | -2% | -0.9 | -48 | -2.7
CC(C)(C)NC(=O)c1ccc2c3c(cccc13)CC2 | 9 | -0.4 | 0.7 | -3% | 13 | -2.7 | -1.4
O=C(NCCN1C(=O)S/C(=C/c2cccnc2)C1=O)c1ccc(S(=O)(=O)N2CCCC2)cc1 | -9 | x | 0.67 | -4% | x | 4.9 | 1.6
Oc1ccccc1/C=N/N1CCN(c2ccccn2)CC1 | -3 | -1.8 | x | 9% | 1.0 | x | -1.5
C=CCNC(=O)c1ccc2nccnc2c1 | -2 | 0.2 | 0.67 | 9% | 0.5 | 1.6 | -1.9
Cc1ccccc1NC(=O)COc1coc(CN2CCN(c3ccccc3)CC2)cc1=O | 2 | 0.6 | 0.68 | 3% | 2.8 | 2.5 | -2.4
CC1(C)CC(=O)C2=C(C1)Nc1ccccc1NC2c1cccs1 (stereo unspecified) | -1 | 0.7 | 0.72 | -7% | 1.7 | 10 | -0.7
CCOc1ccc(CCNC(=O)CCc2nnc3ccc(N4CCCC4)nn23)cc1OCC | -17 | -0.6 | 0.67 | -2% | -2.2 | 1.0 | 0.6
COc1cc(/C=N/NC(=O)C(=O)Nc2ccccn2)ccc1O | -5 | -1.5 | x | x | 2.2 | x | 0.2
COc1ccc2oc(C(=O)NCc3cc(OC)c(OC)cc3OC)c(C)c2c1 | -1 | 1.6 | 0.68 | -6% | -3.1 | -2.7 | 4.4
O=C(O)c1cnn2c(-c3ccc(F)cc3)ccnc12 | 8 | 0.3 | 0.66 | 23% | 6.5 | -8.3 | 2.8
CCC(C)(C)NC(=O)C(C)OC(=O)c1nsc(Cl)c1Cl (stereo unspecified) | -3 | -0.2 | 0.67 | 9% | 0.4 | -1.9 | -2.2
The results go on.
SMILES | B2AR ag | A1 inh | E coli growth | Vif A3G | LANA-H2A inh | UCH37 inh | HNF4A DNA FP
O=C(C1CCCN(S(=O)(=O)c2cnc[nH]2)C1)N(CCc1ccccc1)Cc1ccccc1 (stereo unspecified) | -4 | 0.4 | 0.75 | 2% | -0.2 | 6.3 | 1.4
CCOc1ccc(S(=O)(=O)N2CCN(S(=O)(=O)c3ccc(C(C)=O)cc3)CC2)cc1 | 0 | 0.5 | x | x | 0.6 | x | 1.8
CSCCC(NC(=O)COc1ccccc1)C(=O)N1CCC(C(N)=O)CC1 (stereo unspecified) | 4 | -0.1 | 0.66 | -11% | 2.7 | -2.3 | 5.6
COc1ccc(S(=O)(=O)N(C)c2ccc(OC(=O)C(C)Oc3ccc(F)cc3)cc2)cc1 (stereo unspecified) | 7 | 0.3 | 0.66 | 3% | 2.5 | 6.4 | -2.1
CNc1nc(SCc2ccccc2Cl)nc2c1CCCC2 | -9 | 0.7 | x | 0% | -1.8 | x | 1.8
CCOC(=O)c1cc(-c2ccccc2)sc1NC(=S)Nc1cccc(C)n1 | 0 | -0.7 | 0.75 | 1% | -4.2 | -0.7 | 3.5
O=C(c1[nH]ncc1[N+](=O)[O-])N1CCOCC1 | 11 | -0.4 | 0.7 | 7% | 5.9 | 3.0 | 5.1
COc1ccc(C(=O)NC2CCN(C(=S)NCc3ccco3)CC2)cc1 | 10 | 0.1 | 0.66 | -1% | -4.6 | -0.4 | 6.5
COc1ccc(CNC(=O)CCCn2nc(C)c([N+](=O)[O-])c2C)cc1 | -3 | -0.9 | 0.69 | -1% | 2.7 | 2.0 | 4.2
CCOC(=O)c1sc(N2C(=O)C(O)=C(C(=O)c3ccc(C)o3)C2c2cccc([N+](=O)[O-])c2)nc1C (stereo unspecified) | 6 | -0.7 | 0.67 | x | 0.8 | -58 | -3.0
c1ccc(Oc2cnc3ccccc3n2)cc1 | -9 | -0.2 | 0.7 | -3% | 5.5 | 2.4 | -5.0
Cc1cc(=O)oc2c(CN3CCN(CCO)CC3)c(O)ccc12 | -6 | 0.4 | 0.6 | 29% | 12 | i | -1.7
[O-]/C(=C(\C(=S)Nc1ccccc1F)[n+]1ccccc1)c1ccc(OC(F)F)cc1 | -3 | -0.1 | 0.73 | 24% | -0.6 | 1.3 | 75*
Nc1nnc(-c2cc3c(ccc4ccccc43)oc2=O)s1 | x | x | 0.72 | 11% | x | -35 | x
COC(=O)CSc1nc2sc3c(c2c(=O)[nH]1)CCC3 | -2 | -0.1 | 0.64 | 8% | -5.6 | 1.8 | -6.6
COC(=O)c1cccc(NC(=S)Nc2ccc(Cl)c(Cl)c2)c1 | 10 | -0.5 | 0.56 | -1% | 2.0 | 4.4 | 2.2
O=C1c2oc3ccc(Cl)cc3c(=O)c2C(c2ccccn2)N1CCCN1CCOCC1 (stereo unspecified) | x | 1.0 | 0.78 | x | 0.7 | 0.6 | x
Cc1nnc(SCC(=O)c2ccccc2F)n1Cc1ccccc1 | -3 | 0.2 | 0.65 | 0% | -10 | 3.7 | 0.1
Cc1cccc(NS(=O)(=O)c2cnc(Cl)c(Br)c2)n1 | 23 | -5.6 | 0.67 | 18% | 0.3 | 7.0 | 0.7
Nc1ccccc1Nc1ccncc1[N+](=O)[O-] | 2 | 0.1 | 0.71 | -1% | 2.6 | 1.5 | 1.1
C/C(=N\NC(=O)c1ccccc1NC(=O)c1ccc(Cl)cc1)c1ccncc1 | 11 | -7.7 | x | 7% | 2.4 | x | 3.3
O=C(NCCc1ccccc1)C1CCCN1S(=O)(=O)c1ccc(F)cc1 (stereo unspecified) | -12 | 0.3 | 0.7 | x | -5.1 | 5.3 | 0.0
O=C(CN1CCN(c2ccc(F)cc2)CC1)Nc1nnc(-c2ccccc2)s1 | -3 | -0.5 | 0.72 | 13% | -1.4 | -1.1 | 2.5
CN1CCN(c2ccccc2NC(=O)c2cccs2)CC1 | -1 | -0.2 | 0.72 | 3% | 0.8 | 1.0 | 1.4
CC(C)OP(=O)(OC(C)C)C(O)c1ccc(N(C)C)cc1 (stereo unspecified) | 1 | 0.3 | 0.67 | 76µM* | -0.2 | 6.4 | -1.9
Other structures:
SMILES | B2AR ag | A1 inh | E coli growth | Vif A3G | LANA-H2A inh | UCH37 inh | HNF4A DNA FP
COc1cccc(C(=O)Nc2cc3c(cc2Cl)OCCCO3)c1 | 1 | -4.3 | 0.67 | u | -1.2 | 5.6 | -3.7
CCOc1ccc(S(=O)(=O)Nc2cccc(C(=O)N(C)Cc3cccc(OC)c3OC)c2)cc1 | 0 | 0.4 | 0.68 | x | -1.8 | -1.1 | -2.0
Cc1cc(C(=O)NNC(=O)CN2C(=O)NC(C)(c3ccccc3)C2=O)c(C)o1 (stereo unspecified) | -1 | 0.4 | 0.71 | -7% | -3.4 | 1.5 | -0.2
OC(c1cccs1)c1nccc2ccccc12 (stereo unspecified) | -6 | -1.3 | 0.69 | -4% | -4.3 | 3.3 | -0.8
COCCNC(=O)CN(C(=O)CCC(=O)Nc1nccs1)c1ccccc1OC | 0 | 0.3 | 0.78 | -2% | -3.2 | 0.3 | 3.3
O=C(CCCn1c(=S)[nH]c2ccccc2c1=O)NCc1ccco1 | -13 | 0.6 | 0.69 | -1% | 2.9 | 2.4 | -2.0
COc1ccccc1-c1nnc(NC(=O)C(C)Sc2nncn2C)s1 (stereo unspecified) | -7 | 0.2 | 0.69 | 1% | -5.3 | 8.5 | -1.7
COc1ccc(CNC(=O)c2ccc(Cn3cc(Br)cn3)o2)cc1 | -10 | 0.6 | 0.66 | 2% | -5.1 | 1.2 | 0.0
O=C(CSc1ccc(F)cc1)NC(=O)NCc1ccccc1 | 3 | 0.1 | 0.68 | -6% | 0.3 | 0.3 | 1.0
CCN(CC)C(=O)C1CC(=O)N(c2ccc(OC)cc2)C1c1ccc(OC)cc1 (stereo unspecified) | 13 | -0.4 | 0.69 | 18% | -0.7 | -0.3 | 0.2
O=C(COc1ccc2c3c(c(=O)oc2c1)CCC3)NCCCN1CCCC1=O | -7 | -0.3 | 0.66 | -2% | 2.5 | -21 | 4.4
O=C(COc1ccc(S(=O)(=O)N2CCCC2)cc1)NCC1CCCO1 (stereo unspecified) | -8 | 0.3 | 0.63 | x | 0.2 | 4.6 | -2.5
O=C(CCC(=O)Nc1cccc2ccccc12)N/N=C/c1ccco1 | 4 | 0.2 | x | -2% | 3.7 | x | -1.9
COc1ccc(OCCCC(=O)OCC(=O)NNC(=O)c2ccc([N+](=O)[O-])cc2)cc1 | -12 | 0.6 | 0.63 | 1% | x | 0.5 | -3.2
Cc1ccc(S(=O)(=O)CC(=O)NCc2ccccc2)cc1 | -3 | 0.5 | 0.71 | x | 2.6 | 1.0 | -0.3
C[C@@H](C(=O)N1CCNCC1)n1cc(CCC(=O)O)nn1 | 0 | 0.1 | x | -8% | 2.1 | 1.9 | -0.9
O=C(/C=C/c1ccc2c(c1)OCO2)NCc1ccco1 | 0 | -0.8 | 0.65 | 21% | 9.8 | -30 | -4.2
CCn1nnnc1-c1ccc(OC)c(S(=O)(=O)NCc2ccccc2)c1 | 4 | 0.6 | 0.7 | 26% | 1.8 | -0.7 | -0.6
